Source: PubChem (National Center for Advancing Translational Sciences (NCATS))
D2 potentiator: Beta-Arrestin HTS for Positive Allosteric Modulators of the Human D2 Dopamine Receptor: Potentiators. AID 624464, 2012. DiscoveRx D2 beta-arrestin cells, luminescence, 90 min; 100% = 57 uM dopamine signal. D(2) dopamine receptor (Homo sapiens), P14416. potentiation, % (no concentration beside the values). 360,000 tested, 0.23% active; active = potentiation of 50% or more; inconclusive = 30% to 50%; inactive = 30% or less;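 note: compound concentration not given in the record; tested on top of an EC20 dose of dopamine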
Target sequence (P14416 whole entry, looked up): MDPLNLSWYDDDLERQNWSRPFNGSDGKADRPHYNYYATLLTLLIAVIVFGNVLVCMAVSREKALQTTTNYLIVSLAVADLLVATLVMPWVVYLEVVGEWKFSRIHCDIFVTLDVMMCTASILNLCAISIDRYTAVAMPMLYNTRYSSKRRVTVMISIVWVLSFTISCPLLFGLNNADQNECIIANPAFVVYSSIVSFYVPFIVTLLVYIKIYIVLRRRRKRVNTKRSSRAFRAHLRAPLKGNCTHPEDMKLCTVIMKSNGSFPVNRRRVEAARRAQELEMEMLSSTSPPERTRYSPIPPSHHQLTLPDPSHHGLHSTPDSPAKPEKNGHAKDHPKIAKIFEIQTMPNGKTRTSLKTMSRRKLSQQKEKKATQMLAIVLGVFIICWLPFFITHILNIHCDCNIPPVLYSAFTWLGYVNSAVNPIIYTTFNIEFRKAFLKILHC
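PathHunter beta-arrestin assay in DiscoveRx D2 cells. Compounds were added with an EC20 of dopamine (50 nM final) for 90 min at 37 deg C. Luminescence was read 1 h after detection reagent, with 57 uM dopamine as the EC100 control.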
Six1-Eya2 inh: qHTS Assay for Inhibitors of the Six1/Eya2 Interaction | 360,000 tested, 0.56% active | activity change, % (concentration not given with the values) | AlphaScreen GST-Six1/His-Eya2 binding, biochemical; active compounds read low; control for the full effect not named in the record; in the data active = activity change below about -65%; inconclusive = about -30% to -65%; inactive = above about -30%; note: % is set by controls: 0 for no effect and ±100 for the full control effect
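AlphaScreen with GST-Six1 and His-Eya2 (5X mix: 250 nM and 500 nM), glutathione donor and nickel acceptor beads; buffer 50 mM Tris pH 8.0, 300 mM NaCl, 1 mM TCEP; 1 h at 37 C in the dark.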
CtBP-E1A blk: qHTS Assay for Inhibitors of the CtBP/E1A Interaction; CtBP / adenovirus E1A interaction (AlphaScreen); AlphaScreen GST-E1A/His-CtBP binding, 1536-well; active compounds read low; control for the full effect not named in the record; 340,000 tested, 0.49% active; activity change, % (test concentration not listed); in the data active means activity change below about -65%; inconclusive means about -30% to -65%; inactive means above about -30%; note: % is set by controls: 0 for no effect and ±100 for the full control effect
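In 5 uL wells, 23 nL compound meets equimolar GST-E1A and His-CtBP (5X stock 125 nM each) for 2 h, 37 °C. Beads (5X, 50 ug/mL) then 1 h, 37 °C, dark.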
TRPML1 inh: qHTS for Inhibitors of the Human Mucolipin Transient Receptor Potential 1 (TRPML1); TRPML1-inducible cells, Ca2+ dye fluorescence, FDSS; active compounds read low; inhibition of EC80 agonist-evoked calcium signal; activity change, negative = inhibition, % (test concentration not listed); 390,000 tested, 0.02% active; in the data active means activity change below about -50%; inconclusive means about -30% to -50%; inactive means above about -30%;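 note: stimulus is agonist 54-4 at its EC80 concentration; % is set by controls: 0 for no effect and ±100 for the full control effect; compound concentration not given in the record; the text of the record puts the active cut at -80%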
Target sequence (Q9GZU1 whole entry, looked up): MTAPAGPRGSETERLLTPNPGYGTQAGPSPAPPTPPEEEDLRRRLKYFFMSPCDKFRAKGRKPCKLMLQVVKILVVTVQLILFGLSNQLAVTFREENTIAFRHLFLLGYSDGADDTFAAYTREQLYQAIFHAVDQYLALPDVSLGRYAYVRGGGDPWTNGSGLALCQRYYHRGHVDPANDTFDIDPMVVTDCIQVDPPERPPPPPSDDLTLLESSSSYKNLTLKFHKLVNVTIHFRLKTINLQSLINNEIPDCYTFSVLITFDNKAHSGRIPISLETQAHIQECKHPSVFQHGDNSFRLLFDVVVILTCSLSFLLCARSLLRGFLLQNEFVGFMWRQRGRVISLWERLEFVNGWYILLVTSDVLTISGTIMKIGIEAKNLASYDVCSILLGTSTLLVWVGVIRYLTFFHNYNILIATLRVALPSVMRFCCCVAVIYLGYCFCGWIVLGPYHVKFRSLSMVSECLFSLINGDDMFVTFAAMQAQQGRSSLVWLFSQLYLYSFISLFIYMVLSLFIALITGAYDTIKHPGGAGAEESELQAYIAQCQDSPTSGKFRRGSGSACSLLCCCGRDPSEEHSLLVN
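TRPML1-DL cells, Tet-induced overnight (~16 h, 37 °C) at 1,500 cells/well, were loaded with Ca8 no-wash dye plus quencher for 45-90 min at room temperature. Compounds were pinned during FDSS kinetic reading; agonist 54-4 at EC80 (4 uM final) then added.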
TRPV1 potentiator: HTS Assay for Compounds that Act as Potentiators of the Vanilloid Receptor 1. Transient receptor potential cation channel subfamily V member 1 (Homo sapiens), Q8NER1. TRPV1-expressing cells, Fluo-8 calcium influx, capsaicin EC20 potentiation; host cell line not named in the record; control for the full effect not named in the record. 320,000 tested, 0.02% active. potentiation, % at 8.33 µM; active means potentiation above 80%; inconclusive means 30% to 80%; inactive means below 30%; note: 0% is about no effect
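Fluo-8 calcium influx in TRPV1-expressing cells, kinetic read (ex 480/em 520 nm). Compound added and read 3 min for agonist activity, followed by capsaicin at EC20 final and 2 min further read for enhancement.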
TRPML1 agonist: qHTS for Agonists of the Human Mucolipin Transient Receptor Potential 1 (TRPML1). Mucolipin-1 (Homo sapiens), Q9GZU1. TRPML1-expressing cells, Ca2+ dye fluorescence, FDSS; host cell line not named in the record; reference of the full effect not given here. activation, % (no concentration beside the values). 410,000 tested, 0.12% active. AID 624414, 2012; in the data active = activation above about 50%; inconclusive = about 30% to 50%; inactive = below about 30%; note: 0% is about no effect; the text of the record puts the active cut at 80%
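Tetracycline-induced TRPML1-DL cells are seeded and incubated overnight before loading with a no-wash Ca2+ dye and quencher. Agonist activity is taken from the 110 s fluorescence read following compound pin-transfer on an FDSS, before EC80 54-4 challenge.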
Active calls of the source: *; ? = inconclusive; nt = not tested or not shown; & = joins results of further samples.

SMILES	D2 potentiator	Six1-Eya2 inh	CtBP-E1A blk	TRPML1 inh	TRPV1 potentiator	TRPML1 agonist
O=C(COC(=O)c1cncc(Br)c1)NCc1ccccc1	-0.1	4.9	-2.8	0.4	-19.0	0.0
OC[C@@H]1CC[C@@H](Cc2ccc(-c3ccccc3)cc2)O1	nt	3.0	3.0	-6.9	nt	-0.7
O=c1cc(CSc2ccccn2)c2ccccc2[nH]1	2.6	-1.3	0.5	-11.7	-29.8	-1.3
O=C(CSc1nncs1)NC1CCCCCCC1	-3.8	7.3	2.4	1.4	-9.4	0.1
CCCN(C(=O)Cn1c(C(F)(F)F)nc2ccccc21)C1CCS(=O)(=O)C1 (centres undefined)	-17.2	-8.6	13.7	4.6	-7.2	-0.3
CCOC(=O)c1c(C)[nH]c(C)c1C(=O)COc1ncnc2ccccc12	-2.2	3.3	-8.3	-9.1	12.1	0.2
COC(=O)N1CCN(CCc2ccccc2)CC1	-6.3	-2.6	3.6	5.4	5.0	-0.4
COc1ccc(CNc2nc(SCc3cc(=O)n4cc(Cl)ccc4n3)nc3ccccc23)cc1	-12.5	4.0	-2.6	19.7	24.6	0.4
CC(C)OP(=O)(OC(C)C)C(Nc1ccccc1)c1ccccc1C(F)(F)F (centres undefined)	-7.7	8.2	-1.6	-9.0	-39.8	1.2
COc1cc(C2CC(=O)Oc3c(C(CCN4CCCC(C)C4)c4ccc(N(C)C)cc4)c(OC)cc(OC)c32)cc(OC)c1OC (centres undefined)	-23.7	?	-22.2	57.6&8.6	?	0.3&0.0
CCOC(=O)N1CCC(NC(=O)CSCc2nc(-c3ccc(C)cc3)oc2C)CC1	-12.8	-0.3	2.4	-9.5	-12.1	-1.7
COc1cccc(C(=O)NCC(=O)N/N=C/c2ccc(OC(=O)c3cccs3)c(OC)c2)c1	-3.4	-25.8	-0.9	-9.8	-3.0	3.1
COc1ccc(/C=C/C(=O)NC(=S)Nc2cc([N+](=O)[O-])ccc2O)cc1OC	-13.9	-21.1	?	-3.0	6.6	2.0
C=CCN1C(=O)/C(=C/c2ccc(OC)cc2)S/C1=N/c1nccs1	-9.6	3.6	6.6	-15.9	-13.2	-0.7
Cc1ccccc1OCC(=O)N/N=C/c1cn(Cc2ccccc2)c2ccccc12	-5.3	-7.7	-8.3	-6.1	2.6	-0.1
O=C(COc1ccccc1)N1CCN(C(=O)c2ccccc2F)CC1	-2.7	-1.1	-17.0	-5.9	3.3	-0.4
COc1ccc(Cl)cc1NC(=O)CN(C)C(=O)c1ccc(OCc2ccccc2)c(OC)c1	-43.9	-1.7	1.6	2.3	-11.8	-0.2
O=C(NC1CCCCC1)c1ccc(OC2CCN(Cc3ccccn3)CC2)cc1	4.3	7.5	-1.9	19.2	3.5	0.3
CCOc1ccc(C(=O)N2CCSC2=S)cc1	-9.6	-3.0	5.5	10.8	7.7	0.7
Cc1ccc(S(=O)(=O)N(C)C[C@H]2OCCCC[C@H](C)Oc3ccc(NC(=O)Nc4cccc5ccccc45)cc3C(=O)N([C@@H](C)CO)C[C@H]2C)cc1	-1.0	-3.8	-27.5	3.4	nt	0.5
C=CCNC(=O)CC(=O)N/N=C/c1cccs1	-13.1	14.6	0.0	-3.2	-3.0	-0.1
COC(=O)CC1C(=O)NCCN1C(=O)CSc1nc2ccccc2s1 (centres undefined)	-1.2	-2.2	-2.7	-8.3	-4.0	0.0
Cc1cccn2c(=O)c3cc(C(=O)NC4CCCC4)n(C)c3nc12	-14.3	5.9	8.1	-20.7	-0.4	-0.1
Cc1ccc2nc(-c3cccc(S(=O)(=O)N4CC(C)OC(C)C4)c3)cn2c1 (centres undefined)	-6.1	-2.9	-5.9	40.3	-15.2	1.3
O=C(NC1(C(F)(F)F)C(=O)Nc2c1c(=O)[nH]c(=O)n2Cc1ccccc1)c1ccc(Cl)cc1Cl (centres undefined)	3.1	-20.4	?	-11.6	8.3	0.1
CC(C)C[C@@H](CNC(=O)OC(C)(C)C)NC(=O)c1nc[nH]c1C(=O)N[C@@H](CC(C)C)C(=O)CNC[C@H](CC(C)C)NC(=O)c1nc[nH]c1C(=O)N[C@@H](Cc1c[nH]c2ccccc12)C(=O)OC(C)(C)C	-5.2	-7.9	-0.5	-8.0	nt	-0.1
Cc1cc(Br)cc(C)c1OCCCCN(C)C	-14.0	5.5	-1.9	26.2	0.1	1.5
COc1cccc(CN(C)C(=O)/C=C/c2ccc(S(=O)(=O)N3CCCCCC3)cc2)c1	12.0	-14.9	6.5	15.2	2.1	2.7
COc1ccc2nc(SCC(=O)Nc3ccccc3OC)[nH]c2c1	-9.2	1.5	-1.3	10.0	-13.1	-0.1
CCc1cc2ccc(C)cc2nc1SCC(=O)Nc1c[nH]c(=O)[nH]c1=O	-35.0	0.8	nt	-2.8	16.8	0.1

Continued; the last six above are carried over.
SMILES	D2 potentiator	Six1-Eya2 inh	CtBP-E1A blk	TRPML1 inh	TRPV1 potentiator	TRPML1 agonist
O=C(NC1(C(F)(F)F)C(=O)Nc2c1c(=O)[nH]c(=O)n2Cc1ccccc1)c1ccc(Cl)cc1Cl (centres undefined)	3.1	-20.4	?	-11.6	8.3	0.1
CC(C)C[C@@H](CNC(=O)OC(C)(C)C)NC(=O)c1nc[nH]c1C(=O)N[C@@H](CC(C)C)C(=O)CNC[C@H](CC(C)C)NC(=O)c1nc[nH]c1C(=O)N[C@@H](Cc1c[nH]c2ccccc12)C(=O)OC(C)(C)C	-5.2	-7.9	-0.5	-8.0	nt	-0.1
Cc1cc(Br)cc(C)c1OCCCCN(C)C	-14.0	5.5	-1.9	26.2	0.1	1.5
COc1cccc(CN(C)C(=O)/C=C/c2ccc(S(=O)(=O)N3CCCCCC3)cc2)c1	12.0	-14.9	6.5	15.2	2.1	2.7
COc1ccc2nc(SCC(=O)Nc3ccccc3OC)[nH]c2c1	-9.2	1.5	-1.3	10.0	-13.1	-0.1
CCc1cc2ccc(C)cc2nc1SCC(=O)Nc1c[nH]c(=O)[nH]c1=O	-35.0	0.8	nt	-2.8	16.8	0.1
CCc1ccc(-c2nc(SCC(=O)NC3CC3)n[nH]2)cc1	6.1	5.9	3.1	-10.9	-6.8	-0.3
CC(C)(C)c1ccc(S(=O)(=O)N2CCC(c3nc4ccc(Cl)cc4[nH]3)CC2)cc1	5.4	1.5	6.8	18.9	-2.6	1.4
Cn1c(CC(=O)Nc2ccccc2)c(Sc2ccccc2)c2ccccc21	-1.3	-3.0	10.4	8.2	8.6	0.7
C/C=C\C(=O)Nc1cccc(C2=NOC3(C2)C[C@@H](C(N)=O)N(C(=O)c2ccc(OC)cc2)C3)c1 (some centres undefined)	-4.3	1.2	nt	-15.2	-27.1	0.6
Cc1nc(NCCc2ccccc2)c(C#N)c(C)c1[N+](=O)[O-]	1.2	-8.1	-4.8	7.5	19.4	1.2
Cc1cccc(-n2c(=S)[nH]c3c(oc4ccccc43)c2=O)c1	2.3	-0.8	2.8	-7.3	11.3	-0.3
Cc1cc(Nc2ncc(Cl)cc2Cl)n(-c2ccccn2)n1	-32.4	7.9	-3.4	3.8	-7.6	0.0
Nc1c(-c2nn[nH]n2)cnn1-c1cc(Cl)cc(Cl)c1	-4.1	14.4	4.0	-13.5	3.9	-0.3
CCCCn1c(SCC(=O)N2CC(=O)Nc3ccccc32)nnc1-c1ccoc1C	-3.4	-2.2	2.8	0.2	-0.2	-0.4
CC(OC(=O)CCc1nc2ccccc2c(=O)[nH]1)C(=O)NCc1ccc2c(c1)OCO2 (centres undefined)	-10.0	-12.8	-6.6	-0.9	-22.1	-0.1
CCC(=O)Nc1ccc2c(c1)OCCO2	1.7	0.8	5.5	12.4	-26.9	0.4
NC(=O)N/N=C(/CCCCCC/C(=N\NC(N)=O)c1ccccc1)c1ccccc1	5.2	-20.6	-6.0	21.3	nt	1.3
CNc1ccccc1C(C)(C)c1cn(-c2ccc([N+](=O)[O-])cc2)nn1	-5.3	-4.7	-3.3	26.3	-8.5	-0.5
CCn1c2ccccc2c2cc(NC(=O)N3CCCCC3)ccc21	-13.7	-8.7	-0.4	4.2	nt	-0.8
CCn1c(-c2ccccc2)c(C(=O)CC#N)c2ccccc21	3.5	2.7	-2.1	-15.2	-1.0	-0.1
CCOC(=O)N1CCC(C(=O)NNC(=O)c2ccc(Cl)cc2Cl)CC1	-5.2	-0.9	-1.5	18.9	12.8	0.0
Cc1cc(NS(=O)(=O)c2ccc(NC(=O)CN3C(=O)NC(C)(c4ccccc4)C3=O)cc2)nc(C)n1 (centres undefined)	-1.9	-6.4	1.5	15.7	15.9	0.3
CC(CCc1ccccc1)NC(=O)c1ccc(NC(=O)c2ccccc2)cc1 (centres undefined)	-2.9	-2.7	-0.4	8.8	4.3	-0.3
O=C(Nc1ccc(NC(=O)c2cccs2)cc1)c1ccc2ccccc2c1	-4.5	2.1	-7.5	26.6	-19.5	0.6
CCOC(=O)c1ccc(NC(=O)CCS(=O)(=O)Cc2ccccc2)cc1	14.7	5.5	-6.2	-15.3	12.9	0.6
O[C@@H]1CN(C2CCN(Cc3ccccc3)CC2)CC[C@H]1N1CCCCCC1	-1.8	-8.0	-3.4	17.3	nt	-0.4
Cc1ccc(C(=O)Nc2cccc(C(F)(F)F)c2)cc1NC(=O)c1nccn1C	-1.0&-25.1	4.7&-1.2	5.6&5.7	14.6&5.0	3.8	0.6&-1.0
CSc1nc2nc(C(F)(F)F)cc(-c3ccccc3)n2n1	17.0	4.2	5.4	19.7	-2.9	1.8
O=C(CN1CCN(S(=O)(=O)c2ccc(Cl)cc2)CC1)NC1CCCC1	-12.9	10.7	-13.0	-1.5	-6.7	1.0
CC(=O)Nc1ccc(S(=O)(=O)N(C)CC(=O)OCC(=O)c2ccc[nH]2)cc1	-14.2	2.1	-17.2	-21.3	nt	1.6
COc1cc(CNCCc2ccc(S(N)(=O)=O)cc2)ccc1OCC(=O)N1CCCCC1	-7.3	14.8	-2.7	-5.0	-8.8	0.3
